GLA inh pH 4.5 = alpha-galactosidase A (human) inhibition, pH 4.5 | purified enzyme, 4-MU-alpha-Gal fluorescence, pH 4.5 | activity change, negative = inhibition, % at 105 µM | 230,000 tested, under 10 active | AID 1467; inconclusive = small, poorly fitted or top-dose-only inhibition, or a rising curve; inactive = flat fitted curve, though single readings scatter; no compound was filed as active;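 also: 0% = full activity with enzyme and -100% = basal without enzyme; dose as in the result columns while the protocol names 77 µM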
miR-21 reporter = miR-21 reporter, rising signal; HeLa miR-21 FLuc reporter, luciferase, 48 h; Potency, µM (doses to about 38.3 µM), without a hit: top-dose reporter change, positive = more light; 340,000 tested, under 10 active; active = well fitted rising curve with a large enough effect; inconclusive = small, poorly fitted or top-dose-only effect; inactive = no such curve, though single readings can be large or run the other way;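 also: % of control where 0% means no effect; miR-21 action dims this reporter so a rising signal means less miR-21 action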
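HeLa cells endogenously expressing miR-21, stably carrying CMV-driven firefly luciferase with a downstream miR-21 binding site, 2000 cells/well. Titrations up to approximately 40 uM, 48 hours; luciferase luminescence read.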
Rango-impB inh = Rango-importin beta binding inhibition. Q14974. Rango CFP/YFP FRET sensor + importin beta, 45 min. Potency, µM (titrated, usually from 92.2 µM), inactives show top-dose inhibition of complex formation. 340,000 tested, 0.031% active. AID 540263; active = rising FRET ratio curve, often small or poorly fitted; inconclusive = mostly compound fluorescence or quenching in the first reads; inactive = flat curves in all reads;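 also: potency is read from the fitted curve at half-maximal effect; 0% = DMSO wells and 100% = buffer wells lacking importin beta; nearly all actives have a fitted effect of over 15% in size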
Target sequence (Q14974 whole entry, looked up): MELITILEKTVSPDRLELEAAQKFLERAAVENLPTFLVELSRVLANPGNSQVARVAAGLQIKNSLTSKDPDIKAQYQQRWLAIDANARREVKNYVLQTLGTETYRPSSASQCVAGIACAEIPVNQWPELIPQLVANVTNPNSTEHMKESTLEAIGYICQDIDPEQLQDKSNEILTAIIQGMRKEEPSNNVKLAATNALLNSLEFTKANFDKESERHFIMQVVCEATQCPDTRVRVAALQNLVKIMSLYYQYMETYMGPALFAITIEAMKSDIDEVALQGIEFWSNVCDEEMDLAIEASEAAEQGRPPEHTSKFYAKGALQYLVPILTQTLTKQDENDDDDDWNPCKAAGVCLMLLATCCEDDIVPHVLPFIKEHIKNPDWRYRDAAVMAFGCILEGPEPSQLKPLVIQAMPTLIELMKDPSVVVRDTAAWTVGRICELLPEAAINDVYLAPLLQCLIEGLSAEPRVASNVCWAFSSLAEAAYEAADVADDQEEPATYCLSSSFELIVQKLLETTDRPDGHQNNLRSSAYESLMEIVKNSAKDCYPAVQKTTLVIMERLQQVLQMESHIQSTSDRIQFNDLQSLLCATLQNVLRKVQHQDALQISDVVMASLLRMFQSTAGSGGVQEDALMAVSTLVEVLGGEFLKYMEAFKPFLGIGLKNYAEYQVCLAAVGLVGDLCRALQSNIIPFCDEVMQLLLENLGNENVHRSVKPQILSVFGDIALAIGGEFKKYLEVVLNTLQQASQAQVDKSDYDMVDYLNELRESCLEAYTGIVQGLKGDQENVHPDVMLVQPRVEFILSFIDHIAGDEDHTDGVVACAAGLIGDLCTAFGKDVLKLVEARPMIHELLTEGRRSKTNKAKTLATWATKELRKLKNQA
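FRET biosensor Rango (snurportin 1 IBB between N-terminal EYFP and C-terminal Cerulean), 50 nM in PBS/1 mM DTT/0.02% Tween-20/0.1% BSA, preincubated 5 min RT with compound; 0.125 microM importin beta added, 45 min RT, CFP/YFP FRET ratio read.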
Rango release inh = inhibitors of RanGTP-induced Rango-importin beta complex dissociation | O95149+P62826 | Biochemical FRET Rango-importin beta, RanGTP-induced dissociation | Potency, µM (series often up to 46.1 µM), inactives show top-dose activity change, negative = inhibition | 340,000 tested, 0.071% active | AID 540253; active means falling FRET ratio curve, often poorly fitted, with flat reads before Ran was added; inconclusive means other falling curves, or compound fluorescence or quenching; inactive means flat or rising ratio curve;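 also: potency is read from the fitted curve at half-maximal effect; % of control where 0% means no effect; nearly all actives have a fitted effect of over 45% in size; -100% = wells without RanGTP and RCC1; the record marks most hits as doubtful in a second field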
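FRET read at 45 min, room temperature: inhibitors block the CFP/YFP signal rise when RanGTP (0.6 uM Ran, 2 mM GTP, 0.2 uM RCC1) frees Rango (0.1 uM) from importin beta (0.25 uM). Pre-read after 5 min compound exposure flags interference.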
The depositor's hits bear a star; ? = inconclusive; / = not tested or not shown; & = joins results of further samples; [ ] = remark or other dose. Not all compounds are listed; rates above refer to the full screens.

GLA inh pH 4.5 | miR-21 reporter | Rango-impB inh | Rango release inh | compound
0 | 6% | -0.7% | 1% | Clc1ccc(CSc2nc3ccncc3[nH]2)cc1
2 | -5% | -4.1% | -8% | COc1cc(OC)nc(NC(=S)NC(=O)c2ccccc2)n1
/ | / | -1.1% | 10% | O=C(NCc1ccc2c(c1)OCO2)c1ccc2c(c1)S(=O)(=O)c1ccccc1C2=O
/ | 2% | -0.1% | -6% | CCOC(=O)N1CCN(C(=O)c2ccc(Cn3c(=S)[nH]c4ccc(Br)cc4c3=O)cc2)CC1
/ | 2% | -2.2% | 10% | NC(=O)CC(NC(=O)c1cccc(Br)c1)c1ccc(NC2CCCCCCCCCCC2)c([N+](=O)[O-])c1 (stereo unspecified)
/ | 2% | 0.5% | -7% | CC(=O)Oc1ccc(/C=N/NC(=O)c2ccc(N(C)S(=O)(=O)c3ccccc3)cc2)cc1
/ | -5% | 2.3% | 14% | Cc1cccnc1NC(=O)CCCc1c[nH]c2ccccc12
0 | 3% | 5.1% | -18% | CCCCOc1ccc(C2NC(=O)NC(C)=C2C(C)=O)cc1OCC (stereo unspecified)
/ | / | 3.0% | 19% | CCOC(=O)[C@H]1[C@H]2COc3ccc(Cl)cc3[C@@H]2N2C(=O)c3cc(Br)ccc3NC(=O)[C@@]12C
2 | -3% | ? | ? | O=C(O)c1ccc(-c2ccc(/C=C3\NC(=O)N(Cc4ccc(Cl)cc4)C3=O)o2)cc1Cl
7 | 1% | 0.7% | 9% | CC(Oc1ccc(Cl)cc1)C(=O)N/N=C/c1ccsc1 (stereo unspecified)
-10 | 1% | -0.2% | -8% | COCCOc1cc2ncnc(N3CCC(C(=O)O)CC3)c2cc1OCCOC
-7 | -1% | 0.3% | -4% | NCCCC[C@H]1CNC(=S)N1CCCCC1CCCCC1
/ | -1% | 1.4% | 0% | C=CCNC(=O)c1cnn(-c2ccccc2)c1-c1ccccc1
-20 | -2% | 1.1% | 5% | COc1cccc(-c2nc(N3CCN(c4ccccc4)CC3)c3ccccc3n2)c1O
-13 | 29% | -3.5% | -12% | O=C(OCc1nnn(Cc2ccccc2)c1-c1c(COC(=O)c2ccccc2)nnn1Cc1ccccc1)c1ccccc1
3 | -5% | -0.2% | 12% | Cc1cc(=O)n2c3ccccc3n(CC(O)CN3CCC(C)CC3)c2c1C#N (stereo unspecified)
-3 | -10% | 0.6% | 1% | Cc1ccc(C)c(CN2C(=O)C3(OCCCO3)c3ccccc32)c1
1 | -1% | 0.5% | 9% | CCS(=O)(=O)n1nc(-c2ccccc2)cc1N
6 | -31% | -1.8% | 3% | Cc1cccc(-n2cc(CNCCN3CCOC3=O)c(-c3cccc(F)c3)n2)c1
1 | 2% | ? | -9% | O=C(/C=C/c1ccco1)NCC1OCCc2ccccc21 (stereo unspecified)
0 | -58% | 7.1% | 7% | CC(C)CCOc1ccc(C2=NNC(=O)CC2)cc1
-3&-3 | 1% | ? | -8% | N[C@@H](C(=O)N[C@@H]1C(=O)N2C(C(=O)O)=C(Cl)CS[C@H]12)c1ccccc1
/ | 3% | 0.2% | -6% | COc1ccc(OC)c(NC(=O)CCN2C(=O)c3cccc([N+](=O)[O-])c3C2=O)c1
/ | -1% | 0.0% | -5% | COc1ccc(S(=O)(=O)N2CCOC2CNC(=O)C(=O)NCCN2CCOCC2)cc1OC (stereo unspecified)
/ | -1% | -0.3% | -4% | Cc1cc(C)c(NS(=O)(=O)c2c(C)noc2C)c(C)c1
2[21.1 µM] | 2% | -4.9% | -11% | CC(=O)NC1C(OCc2cccc(Br)c2)OC(COC(C)=O)C(OC(C)=O)C1OC(C)=O (stereo unspecified)
3 | -13% | ? | 20% | O=[N+]([O-])c1ccc(C2CC(c3ccccc3)=Nc3ccccc3S2)cc1 (stereo unspecified)
/ | 0% | -0.6% | 10% | COC(=O)C1=C(C)N(C)C(=O)NC1c1c(OC)ccc2ccccc12 (stereo unspecified)
-3 | -2% | -0.5% | -13% | O=C(O)c1ccc(O)c(N2C(=O)Nc3ccccc3N2O)c1
/ | / | 2.5% | 5% | COc1ccc(NC(=O)CN(C)CC(=O)Nc2ccc(C)c(S(=O)(=O)N3CCCCC3)c2)cc1
/ | / | 3.1% | -3% | O=C(CSc1cc(Cl)ccc1Cl)Nc1ccc(N2CCOCC2)cc1
8 | -2% | 1.0% | -20% | CC12CC3(C)CC(C)(C1)CC(NC(=O)N1CCCC1)(C2)C3
/ | -17% | 0.9% | -7% | O=C(NCC(=O)c1ccccc1)OCc1ccc([N+](=O)[O-])cc1
2 | 1% | 2.9% | -1% | Cc1cc(NC(=O)CSc2nc(C(C)C)nc3sc4c(c23)CCCC4)no1
/ | / | 3.2% | 13% | CC(C)NC(=O)Nc1ccc2c(c1)C(=O)N([C@H](C)CO)C[C@H](C)[C@@H](CN(C)C(=O)Nc1ccccc1)O2
-8 | -3% | -2.1% | 1% | O=C(CSCc1ccc(F)cc1)N1CCN(c2ccc(F)cc2)CC1
/ | 1% | -0.6% | 6% | O=C(NCc1ccc(F)c(F)c1)C1CCC(=O)N(CC2CCCCC2)C1 (stereo unspecified)
-10 | -5% | -0.8% | 13% | O=C(/C=C/c1ccco1)OCc1nnc(-c2ccc(Cl)cc2)o1
4 | -5% | -2.9% | 12% | O=C(NNc1ccccc1[N+](=O)[O-])Nc1ccccc1
5 | -12% | -1.4% | -7% | CCCCN(C(=O)c1ccc(S(=O)(=O)N(C)C)cc1)c1nc2ccccc2s1
2 | -1% | -3.8% | 11% | CCOC(=O)NC(=O)CSc1ccccn1
/ | -2% | ? | -3% | Cc1ccc(CNC(=O)c2ccc(Cl)c(S(N)(=O)=O)c2)n1C
4 | -1% | 0.0% | 3% | COCCN(C(=O)c1cc(OC)c(OC)c(OC)c1)c1c(N)n(Cc2ccccc2)c(=O)[nH]c1=O
-4 | -3% | 5.2% | 20% | COc1ccc(C)cc1NC(=O)CSc1nnc(-c2ccccn2)n1Cc1ccco1
7 | -18% | 0.3% | 2% | O=C(CSc1nnc(C2COc3ccccc3O2)o1)Nc1nccs1 (stereo unspecified)
/ | -2% | -1.0% | -6% | Cc1cc(NC(=O)CSc2nc3c(c(=O)n2C)SCC3)no1
5 | 2% | -1.0% | 5% | CCOc1nc(NCCc2ccc(OC)c(OC)c2)nc(NC(C)(C)CO)n1
6 | -2% | 2.1% | 1% | CC1CCN(CC(=O)Nc2ccc(Cl)cc2[N+](=O)[O-])CC1
1 | -16% | 2.1% | -1% | CCc1nc2ccccc2n1Cc1ccc(OC)c(OC)c1
/ | / | -1.3% | 13% | NS(=O)(=O)c1ccc(NC(=O)CN2CCN(S(=O)(=O)c3cccs3)CC2)cc1
1 | 3% | -0.1% | -1% | Nc1ncnc2c1ncn2C1OC(CO)C(O)C1N (stereo unspecified)
8 | -1% | -3.6% | -8% | CC(C)C(=O)NCCc1nc2ccccc2n1CCc1ccccc1
-2 | 0% | 3.1% | 2% | Cc1ccc2nsnc2c1S(=O)(=O)N1CCN(C(=O)C2CCCO2)CC1 (stereo unspecified)
12 | -5% | -3.5% | 1% | CCCC(=O)Nc1cc(OC)c(C(=O)OC)cc1Cl
2 | 0% | -11% | -1% | O=C(CCc1nc2ccccc2[nH]1)Nc1ccc(F)cc1
1 | -37% | 3.9% | 4% | COc1cccc(NC(=O)c2ocnc2C)c1
/ | -31% | -4.6% | 2% | O=S(=O)(Nc1cccc(-c2ccc(N3CCCCCC3)nn2)c1)c1ccccc1Cl
/ | / | -2.8% | 11% | O=C1CCc2cc(NS(=O)(=O)c3ccc([N+](=O)[O-])cc3)cc3c2N1CCC3
-2 | -5% | -0.8% | -4% | COc1ccc(OC)c2[nH]c(=O)c(CCNC(=O)C(C)C)cc12

The list continues.
GLA inh pH 4.5 | miR-21 reporter | Rango-impB inh | Rango release inh | compound
/ | -1% | 0.1% | 2% | CC1(C(=O)N(CC(=O)NC2CCCC2)Cc2ccccc2)CC(=O)N=C2C=CC=CN21 (stereo unspecified)
/ | 1% | 2.2% | 4% | Cc1ccccc1OCC(=O)NCCCNC(=O)c1cccnc1
-8 | 0% | -1.2% | -2% | CCN(CC)C(=O)C[n+]1cccc(C(N)=O)c1
-1 | -63% | 7.3% | -8% | Clc1ccccc1-c1nc2ccccc2[nH]1
1 | -3% | 0.1% | 3% | CC(C)(C)C1(C)OC(C(N)=O)C(C(N)=O)O1 (stereo unspecified)
3 | -97% | -0.2% | -3% | O=C(N=Nc1c(O)n(Cc2ccccc2)c2ccccc12)c1ccc(O)cc1
-10 | -9% | -1.7% | -3% | O=C(CCNc1ccc(Cl)c(C(F)(F)F)c1)c1ccco1
7 | -35% | -0.6% | 12% | Cc1cc2n(n1)SC(Nc1ccc(F)cc1)N2 (stereo unspecified)
1 | 11% | 2.2% | -17% | CC1CC2=C(NC(=S)NC2c2cccc(F)c2)/C(=C/c2cccc(F)c2)C1 (stereo unspecified)
/ | 0% | -1.2% | 0% | CCOCCc1nnc(NC(=O)CCc2ccccc2)s1
/ | / | 0.6% | 0% | COc1ccccc1CNC(=O)COC(=O)C1CCN(c2ccc(C(F)(F)F)cn2)CC1
-2 | -16% | -2.1% | -1% | COc1ccc(CNC(=S)Nc2cccc(C)c2)cc1
3 | -9% | ? | 3% | CN(C)c1nc(N)nc(-c2cccnc2)n1
-3 | 2% | -3.5% | 3% | COc1ccc(CCNS(=O)(=O)c2cc(/C=C/C(=O)O)ccc2C)cc1OC
5 | -1% | -0.2% | 3% | O=C(O)c1cc(Br)ccn1
-19&-9 | 11%&17% | -0.6% | 0% | c1ccc(-c2ccc(C(c3ccccc3)n3ccnc3)cc2)cc1 (stereo unspecified)
/ | -3% | -4.1% | 6% | CCCOc1ccc(S(=O)(=O)n2cc(F)c(=O)[nH]c2=O)cc1
-3 | -1% | -0.7% | -8% | COc1ccccc1NC(=S)N(C(C)C)C(C)c1ccccn1 (stereo unspecified)
6 | -55% | -2.9% | -10% | CC(C)CC(=O)Nc1ccc(-c2nc3ccccc3c(=O)[nH]2)cc1
/ | 19% | 2.0% | -1% | CC(=O)c1cccc(Nc2ncnc3ccc(Br)cc23)c1
3 | -5% | 1.7% | -5% | O=C(Cc1cccs1)N1CCC(c2nc3c(nnn3Cc3ccccc3Cl)c(=O)[nH]2)CC1
/ | -2% | -0.3% | 2% | CC(=O)NC(Cc1ccccc1F)C(=O)NC1CCN(C(=O)NCc2ccccc2)CC1 (stereo unspecified)
/ | -13% | 1.5% | -10% | O=C(O)Cc1ccc2oc(-c3ccccn3)nc2c1
-10 | -26% | 6.2% | -9% | O=C(CSc1ccc(/C=N/NC(=O)c2cccc(F)c2)o1)Nc1ccccc1
-12 | 6% | -1.7% | -2% | COCCNC(=O)C(c1ccc(F)cc1)N(C(=O)CCC(=O)Nc1nccs1)c1cccc(C)c1 (stereo unspecified)
/ | / | 6.2% | 33% | CC(=O)Nc1ccccc1Nc1nc(NCCO)nc(N2CCCC2)n1
/ | / | -0.4% | 1% | Cn1c(=O)c2[nH]c(CCCC(=O)O)nc2n(Cc2ccccc2)c1=S
1 | 1% | 2.3% | -13% | O=C(NNS(=O)(=O)c1ccccc1)c1csc(-c2cccnc2)n1
0 | -2% | / | / | Cc1ccc(-n2c(-c3cn(C)nc3C)n[nH]c2=S)cc1

Exported with each value named: entries from further up.
O=C(CSc1ccc(/C=N/NC(=O)c2cccc(F)c2)o1)Nc1ccccc1
  GLA inh pH 4.5: -10 | miR-21 reporter: -26% | Rango-impB inh: 6.2% | Rango release inh: -9%
Clc1ccccc1-c1nc2ccccc2[nH]1
  GLA inh pH 4.5: -1 | miR-21 reporter: -63% | Rango-impB inh: 7.3% | Rango release inh: -8%

Screens from PubChem BioAssay.
